GALR2 ag: GALR2 receptor agonists, primary screen, cell-based; GALR2-expressing cells, agonist activation read-out; Galanin receptor type 2 (Homo sapiens), O43603; 140,000 compounds, 0.48% hits; AID 803, 2007; activation, %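 (tested at 5 µM)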;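 active = above mean plus 3 SD of all compounds, about 5% in these data, not always enough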;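 also: 0% = vehicle buffer wells and 100% = reference agonist at full effect; tested in CHO reporter cells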
Target sequence (O43603 whole entry, looked up): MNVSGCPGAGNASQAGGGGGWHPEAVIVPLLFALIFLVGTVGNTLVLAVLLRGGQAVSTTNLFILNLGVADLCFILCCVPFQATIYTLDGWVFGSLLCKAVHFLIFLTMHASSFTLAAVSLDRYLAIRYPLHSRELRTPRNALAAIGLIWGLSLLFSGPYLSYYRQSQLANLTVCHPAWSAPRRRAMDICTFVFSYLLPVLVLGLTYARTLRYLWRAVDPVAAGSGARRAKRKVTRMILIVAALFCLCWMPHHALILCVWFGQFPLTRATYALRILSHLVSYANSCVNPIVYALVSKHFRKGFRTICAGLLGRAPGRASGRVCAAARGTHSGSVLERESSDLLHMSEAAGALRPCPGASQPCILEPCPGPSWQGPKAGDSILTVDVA
Insulin prom inh: inhibitors of insulin promoter-driven GFP, primary screen, imaging, TRM-6 cells (human fetal islet line), eGFP reporter, cell count; inhibition, % at 2 µM; 130,000 compounds, 0.9% hits; reporter expression induced with tamoxifen; AID 1273, 2008;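 active = inhibition above the mean plus 3 SD, with well images judged a real hit on visual review, cut at about 60% in these data, passing the limit was not always enough; inconclusive = inhibition over the cutoff but images rejected on review; inactive = inhibition not above the cutoff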
RGS16-Gao HTS: modulators of RGS16 binding to Galphao, primary screen, biochemical, human proteins, multiplexed bead flow cytometry | binding response (% of control), % at 10 µM | bead-based flow cytometry RGS16-Galphao binding, fluorescence; actives lie on both sides | AID 1441, 2008 | Regulator of G-protein signaling 16 (Homo sapiens) + Guanine nucleotide-binding protein … | 220,000 compounds, 0.38% hits;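 active = below 25% or above 175%, edge rows of some plates excepted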;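 also: Galphao activated by GDP with aluminum fluoride before binding; 100% = wells without compound and 0% = beads without RGS; some results beyond the cut were filed as inactive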
Target sequence (O15492 whole entry, looked up): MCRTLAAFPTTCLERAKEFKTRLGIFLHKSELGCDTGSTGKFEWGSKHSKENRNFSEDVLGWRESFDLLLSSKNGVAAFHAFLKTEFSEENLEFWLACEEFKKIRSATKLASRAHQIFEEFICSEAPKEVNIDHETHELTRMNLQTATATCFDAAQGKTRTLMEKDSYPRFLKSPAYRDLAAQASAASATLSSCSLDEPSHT
Target sequence (P09471 whole entry, looked up): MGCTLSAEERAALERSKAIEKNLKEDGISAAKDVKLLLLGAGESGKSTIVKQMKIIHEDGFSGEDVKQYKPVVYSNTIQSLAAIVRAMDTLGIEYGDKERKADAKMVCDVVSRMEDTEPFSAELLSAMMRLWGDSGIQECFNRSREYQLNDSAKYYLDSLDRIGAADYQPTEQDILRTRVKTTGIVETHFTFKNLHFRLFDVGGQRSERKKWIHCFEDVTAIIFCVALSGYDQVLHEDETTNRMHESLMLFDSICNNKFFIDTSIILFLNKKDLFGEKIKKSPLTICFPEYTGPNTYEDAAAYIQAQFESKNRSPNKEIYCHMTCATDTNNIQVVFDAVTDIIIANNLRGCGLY
HSV replic up: enhancers of HSV replication in host cells, fold increase, host cell viability. maximum fold increase. 220,000 compounds, 0.005% hits. HSV replication augmentation in cells;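 active = peak rise of 1.5-fold or more in the series; inconclusive = self-fluorescent or not available for retest; tested in PC3 cells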;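 also: first round at 10 µM; read as green reporter fluorescence; hits show the peak of a series up to 25 µM; 1 = signal of infected wells without compound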
PKD1 inh: inhibitors of human PKD1 kinase, biochemical, fluorescence polarization. Serine/threonine-protein kinase D1 (Homo sapiens), Q15139. PKD1 kinase fluorescence polarization assay. inhibition, %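 (about 10 µM by stock and volumes)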. 200,000 compounds, 0.056% hits. AID 797, 2007;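 active = inhibition of 50% or more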;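 also: controls were vehicle for no effect and a reference inhibitor for full effect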
Insulin prom inh cell count: also measured in Insulin prom inh; calls as there; normalized cell count, %; measured here: cell count, toxicity; reference of the scale not given here;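 cells exposed to compound for 48 h; stained nuclei by imaging scaled within each plate; lower means fewer cells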
HSV replic up primary fold: recorded beside HSV replic up, whose call it bears; fold increase; compound at 10 µM; measured here: primary screen fold increase 10 uM; tested in PC3 cells;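 GFP signal in the first replicate; 1 = infected wells without compound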
Numbers without * were called inactive; i = inactive; ? = inconclusive; . = no result given.

SMILES | GALR2 ag | Insulin prom inh | Insulin prom inh cell count | RGS16-Gao HTS | HSV replic up | HSV replic up primary fold | PKD1 inh
CCOC(=O)c1cc2c(ccn2C)n1CC(=O)N(Cc1ccccc1)c1ccccc1 | -1.6 | -30 | 134 | 99 | i | 1 | -9
CCCNc1nc(C)cc(-c2cc(C(=O)NCc3ccccc3)on2)n1 | . | . | . | 96 | i | 0.8 | .
CC1(C)CC(=O)C2=C(C1)N(c1ccccc1C#N)C(N)=C(C#N)C2c1cccs1 (stereo unspecified) | -1.6 | 40 | 143 | 57 | i | 0.99 | -2
CCOC(=O)N1CCC(N2CCN(c3cc(C)ccc3C)CC2)CC1 | -0.5 | -16 | 130 | 94 | i | 0.98 | 0
Cn1c(=O)c2cc(S(=O)(=O)N3CCOCC3)ccc2n(C)c1=O | -2.1 | -277 | 85 | 120 | i | 0.93 | -11
COc1ccc(NS(=O)(=O)CC(C)C)c(OC)c1 | -0.5 | -23 | 115 | 103 | i | 0.99 | -12
Cc1cc(Cl)ccc1NC(=S)N1CCN(Cc2ccccc2)CC1 | -0.3 | . | . | 143 | i | 1.1 | 10
COC(=O)c1ccc(OCC(=O)NC(C)(C)C)cc1 | -1.7 | -155 | 104 | 103 | i | 0.89 | 3
O=C(O)CN1CCN(c2ncc(C(F)(F)F)cc2Cl)CC1 | . | . | . | 101 | i | 1.1 | -5
COc1ccc(-c2nsc3c(SCc4ccccc4)ncnc23)cc1 | -0.1 | -2 | 104 | 101 | i | 1.1 | -11
Cc1ccc(OCCn2cnc3cc([N+](=O)[O-])ccc3c2=O)cc1 | . | . | . | 101 | i | 1.1 | 0
Oc1ccc(-c2[nH]ncc2-c2ccc(Cl)cc2)c(O)c1 | -0.9 | 58 | 110 | 103 | i | 0.93 | -6
CN(C(=O)COC(=O)c1ccc2c(=O)n3c(nc2c1)CCC3)C1CCS(=O)(=O)C1 (stereo unspecified) | . | . | . | 94 | i | 0.91 | -8
N#CCOc1nc(N2CCOCC2)nc(N2CCOCC2)n1 | -1.0 | 24 | 125 | 102 | i | 0.89 | -2
COc1ccc(/C=N/NC(=O)c2ccc(N)cc2)cc1Cn1cc([N+](=O)[O-])cn1 | . | . | . | 95 | i | 0.85 | -10
O=C(CSc1ccc(-c2ccco2)nn1)Nc1ccccc1 | . | . | . | 99 | i | 0.89 | -9
NC(=O)CSc1nnc(-c2ccc3c(c2)OCO3)o1 | . | . | . | 99 | i | 0.92 | -1
Cc1nc(N)nc(N)c1/C=C/C(C)(C)c1ccc(Cl)cc1 | . | 0 | 35 | 99 | i | 0.72 | -2
CC(C)c1nc2n[nH]c(N)c2c2c1CCCC2 | -1.4 | 64 | 95 | 99 | i | 1.1 | 4
CNC(=O)COc1ccc(Cl)c2cccnc12 | . | . | . | 102 | i | 0.93 | -2
CCOC(=O)CNC(=O)CSc1cc(C)nc2ccc(OC)cc12 | . | -8 | 132 | 102 | i | 0.87 | -3
COc1ccc(S(=O)(=O)N2CCSC2c2ccc(OC)c(OC)c2)cc1 (stereo unspecified) | -0.5 | . | . | 102 | i | 0.95 | -11
CC1CCCN(CCCNC(=O)c2cc3c(Cl)nc4ccccc4c3s2)C1 (stereo unspecified) | . | . | . | 103 | i | 0.64 | 0
CC(=O)NCCc1ccc(S(=O)(=O)N2CCOCC2)cc1 | -0.9 | . | . | 100 | i | 1 | -7
COc1cc(/C=C2\SC(=Nc3ccc(F)cc3)N(c3ccc(F)cc3)C2=O)ccc1OCC(=O)O | . | 0 | 91 | 98 | i | 1 | 1

Reformatted tab-delimited: part of the list above.
SMILES	GALR2 ag	Insulin prom inh	Insulin prom inh cell count	RGS16-Gao HTS	HSV replic up	HSV replic up primary fold	PKD1 inh
Cc1nc(N)nc(N)c1/C=C/C(C)(C)c1ccc(Cl)cc1	.	0	35	99	i	0.72	-2
CC(C)c1nc2n[nH]c(N)c2c2c1CCCC2	-1.4	64	95	99	i	1.1	4
CNC(=O)COc1ccc(Cl)c2cccnc12	.	.	.	102	i	0.93	-2
CCOC(=O)CNC(=O)CSc1cc(C)nc2ccc(OC)cc12	.	-8	132	102	i	0.87	-3
COc1ccc(S(=O)(=O)N2CCSC2c2ccc(OC)c(OC)c2)cc1 (stereo unspecified)	-0.5	.	.	102	i	0.95	-11
CC1CCCN(CCCNC(=O)c2cc3c(Cl)nc4ccccc4c3s2)C1 (stereo unspecified)	.	.	.	103	i	0.64	0
CC(=O)NCCc1ccc(S(=O)(=O)N2CCOCC2)cc1	-0.9	.	.	100	i	1	-7

(next part)
SMILES | GALR2 ag | Insulin prom inh | Insulin prom inh cell count | RGS16-Gao HTS | HSV replic up | HSV replic up primary fold | PKD1 inh
CCCc1cc(C(=O)Nc2cccnc2)no1 | -1.5 | . | . | 108 | i | 0.92 | -4
OC(COc1ccccc1)CN1CCN(Cc2ccc3c(c2)OCO3)CC1 (stereo unspecified) | . | . | . | 88 | i | 0.88 | -6
CN1CCS/C1=C/C=C1/SC(=S)N(Cc2ccccc2)C1=O | -2.5 | . | . | 99 | . | . | -11
Cc1c(N=C2N=C(NC(=O)c3cccs3)c3ccccc32)c(=O)n(-c2ccccc2)n1C | . | . | . | 103 | . | . | 0
Cc1cc(Cl)ccc1NC(=O)Nc1c(C)n(-c2ccccc2)c(=O)n1C | -1.5 | 7 | 115 | 104 | i | 0.97 | 3
CC1(C)CNC(=O)c2sc(N3CCCCC3)nc2C1 | 2.2 | . | . | 99 | i | 1 | -4
COc1ccc(OC)c(C2/C(=C(\O)c3ccc(OC)c(Cl)c3)C(=O)C(=O)N2CCN(C)C)c1 (stereo unspecified) | -0.5 | 38 | 77 | 95 | i | 0.99 | -7
COc1ccc(Cl)cc1N(CC(=O)N/N=C/c1ccc(OC(C)C)cc1)S(=O)(=O)c1ccc(C)c([N+](=O)[O-])c1 | -1.4 | -29 | 80 | 103 | i | 0.85 | -10
COc1cc(CNCCO)cc(Br)c1OCc1cccs1 | -2.1 | 4 | 109 | 106 | i | 1.1 | -7
O=C(N/N=C/c1nn(-c2ccccc2)cc1-c1ccccc1)c1ccncc1 | -0.5 | . | . | 106 | i | 0.94 | -12
O=C(COc1ccc(-c2nnco2)cc1)N1CCN(S(=O)(=O)c2ccccc2)CC1 | -2.6 | . | . | 87 | i | 0.9 | 9
N/C(=N\S(=O)(=O)c1cc(C(F)(F)F)cc(C(F)(F)F)c1)c1cccs1 | . | . | . | 99 | i | 0.99 | .
CCCCOCCCNC(=O)Cc1cccs1 | -1.9 | -39 | 106 | 100 | i | 0.83 | -19
O=S(=O)(NCC(Nc1ccc(Cl)cc1)c1ccccc1)c1ccccc1 (stereo unspecified) | -0.9 | -50 | 94 | 103 | i | 1 | -5
Cc1[nH]c2ccccc2c1/C=N/NC(=O)c1cccc(S(=O)(=O)Nc2ccccc2Cl)c1 | 0.0 | . | . | 143 | i | 1 | -2
COc1ccc(-c2nnc(SCC(=O)N(C)C3CCS(=O)(=O)C3)n2N)cc1OC (stereo unspecified) | . | . | . | 95 | i | 1.1 | 0
O=C(N/N=C\c1cccnc1)c1cc(-c2ccc(Cl)s2)[nH]n1 | . | -25 | 168 | 105 | i | 0.98 | -3
Cc1cccc(C(=O)O/N=C/c2c(Cl)n(C)c3ccccc23)c1 | -1.2 | 17 | 120 | 93 | i | 0.81 | 6
CCNS(=O)(=O)c1ccc(Br)c(OC)c1 | -2.1 | -15 | 157 | 99 | i | 1.2 | 2
Cc1ccc(OCC(=O)c2cc(C)n(-c3ccccc3)c2C)c([N+](=O)[O-])n1 | -0.6 | 0 | 108 | 56 | i | 0.95 | 4
COc1cccc(/C=N/n2c(=S)n(C)c3cc(C)c(C)cc32)c1OC | -1.4 | 26 | 81 | 100 | i | 0.91 | -8
NC(=O)/C(=C/c1ccco1)C(N)=S | . | . | . | 93 | i | 0.85 | .
O=C(O)CCCN=C1CCCc2ccccc2N1 | -2.2 | 14 | 77 | 105 | i | 1 | 1
N#CC(C(N)=O)=C1CCC2(CC1)OCCCCO2 | -0.3 | . | . | 109 | i | 0.87 | 12
CCCCCOc1ccc(C(=O)NC(CCC)C(=O)O)cc1 (stereo unspecified) | -1.0 | . | . | 105 | i | 1 | -4
SMILES | GALR2 ag | Insulin prom inh | Insulin prom inh cell count | RGS16-Gao HTS | HSV replic up | HSV replic up primary fold | PKD1 inh
CCC(=O)Nc1ccc(NC(=O)Cc2ccccc2)cn1 | -1.2 | 5 | 86 | 97 | i | 1 | -7
Cc1cc(Nc2cccc(F)c2)nc(-c2ccccc2O)n1 | -2.7 | -107 | 78 | 72 | i | 1 | 6
O=c1c2cccnc2[nH]c(=S)n1CCCN1CCN(c2ccccc2F)CC1 | -1.4 | . | . | 100 | . | . | -5
Cc1ccc(C(=O)N2CCN(c3ccc(NC(=S)NC(=O)c4cccs4)cc3)CC2)cc1 | . | -53 | 85 | 100 | i | 0.99 | 1
O=C1Nc2ccccc2/C1=C/c1cnc(-c2ccccc2)[nH]1 | . | . | . | 97 | ? | . | .
O=C(NCc1ccco1)C(c1ccccc1)N(C(=O)Cc1cccs1)c1cccnc1 (stereo unspecified) | . | -40 | 100 | 108 | i | 0.78 | 2
NC(=O)c1nsc(C(=O)N(CC(=O)NCc2ccc(F)cc2)Cc2ccco2)c1N | -1.3 | -31 | 119 | 129 | i | 0.74 | -5
Cc1c(Cl)c(=O)oc2cc(OCC(=O)NCc3cccs3)ccc12 | 0.0 | -1 | 121 | 92 | i | 0.93 | -3
COC(=O)c1ccc(NC(=O)CSC2=NC(=O)C(c3ccccc3)C(=O)N2)cc1 (stereo unspecified) | -1.9 | 27 | 73 | 87 | i | 0.9 | -10
O=C(COc1ccc([N+](=O)[O-])cc1)Nc1cc(C(=O)O)cc(C(=O)O)c1 | . | -8 | 100 | 94 | i | 1.1 | -6
CCc1ccc(CCC(=O)Nc2nnc(C)s2)o1 | -1.2 | -11 | 128 | 92 | i | 0.84 | -4
FC(F)(F)COc1ccc(-n2ccnc2)nn1 | . | . | . | 103 | i | 0.98 | 0
O=C(Nc1ccccc1)N1CCN(c2cccc(C(F)(F)F)c2)CC1 | -0.3 | . | . | 104 | i | 0.88 | 1
O=C(Nc1ccc(-c2cn3ccccc3n2)cc1)c1ccco1 | -1.5 | -54 | 97 | 96 | i | 0.85 | -7
O=C(COc1ccc(Cl)cc1)NCCCn1ccnc1 | -2.0 | . | . | 146 | i | 1 | -6
CCN(C(=O)c1c(C)cc(=O)oc1C)c1ccc2c(c1)OCO2 | -1.9 | 7 | 147 | 44 | i | 0.98 | -9
c1ccc2c(CNn3cnnc3)cccc2c1 | -1.9 | 19 | 102 | 109 | i | 1 | 10
Cc1[nH]nc2ncc(C(=O)c3ccccc3O)cc12 | -2.2 | 80* | 130* | 128 | i | 0.71 | 3
Cc1csc(N(C(=O)c2ccc(S(=O)(=O)N(C)C)cc2)c2ccccc2)n1 | -0.3 | 7 | 144 | 99 | i | 0.93 | 7
O=C1c2ccccc2C(=O)N1c1ccc(-c2nc3ccccc3o2)cc1 | -1.8 | . | . | 99 | i | 1 | -10
CCCC(=O)c1c[nH]c(C(=O)NCc2ccco2)c1 | -1.9 | 15 | 151 | 108 | i | 0.93 | -9
O=c1[nH]c2ccc(S(=O)(=O)NCc3ccccn3)cc2s1 | -1.1 | . | . | 102 | i | 0.86 | 0
C=C1SC(Nc2c(C)cccc2C)=NC12CCCCC2 | . | . | . | 99 | i | 0.94 | .
CCN1CCN(C(=O)Nc2cccc3ccccc23)CC1 | -4.1 | -20 | 96 | 109 | i | 1 | 0
Cc1ccc(NC(=S)NNC(=S)NCc2ccccc2)cc1 | -1.9 | 18 | 152 | 96 | ? | . | -14
O=C(NCc1ccc(F)cc1)C1C2C=CC3(CN(Cc4cccnc4)C(=O)C13)O2 (stereo unspecified) | -1.4 | . | . | 102 | i | 0.91 | 1
O=S(=O)(Cc1ccccc1)NCC1CCCN(Cc2ccc(F)c(F)c2)C1 (stereo unspecified) | . | . | . | 101 | i | 0.93 | -6
CCOc1cc(-c2nc(-c3ccc(C)nc3OCC)no2)cc(OCC)c1OCC | -1.0 | -29 | 102 | 101 | i | 0.78 | 1
Cn1nc(C(=O)OCc2ccc(F)cc2)c2ccccc2c1=O | . | -83 | 88 | 103 | i | 0.96 | -4
COCCN1C=C2C(=O)C(C)(OC(=O)CCC(=O)OC)C(=O)C=C2C=C1C1CC1 (stereo unspecified) | . | . | . | 77 | i | 0.98 | .

This is a random part of the collection; overall some 1.1% were active at least once.
